Hedgehog inh: Hedgehog pathway signaling inhibitors, primary screen, luminescence, Shh-LIGHT2 cells, Gli-luciferase; Shh-LIGHT2 Gli-luciferase reporter, 30 h; inhibition, % (test concentration not listed); 22,000 tested, 2.1% active; AID 2313, 2010;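 active = replicate mean of 65% or more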;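 note: pathway switched on by Shh-conditioned medium diluted 1 in 25 in low serum; 100 nL library stock added to about 40 µL; 0% = median of neutral wells and 100% = positive control level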
YB-1 expr inh: inhibitors of YB-1 gene expression, primary screen, cell-based, fluorescence | U2OS, qRT-PCR YB-1 vs CDIP delta delta Cp, 16 h; hits give high values; zero = DMSO, each unit about twofold | delta delta Cp (YB-1 minus CDIP) (no concentration beside the values) | 30,000 tested, 0.37% active;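 active = delta delta Cp rounded down to an integer at or above 3, about 3 SD of DMSO wells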;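 note: higher means less YB-1 transcript or more CDIP transcript relative to DMSO; stock transfer was 100 nL into about 100 µL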
MITF inhib: inhibitors of MITF, primary screen, MITF inhibitor project, cell-based, luminescence; TRPM1 promoter luciferase, 24 h; inhibition, % (no concentration beside the values); 37,000 tested, 0.28% active; AID 2240, 2010;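 active = most replicates at 85% or more, or half of them and the mean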;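 note: human melanocyte line stably carrying TRPM1 promoter luciferase reporter; 0% = vehicle wells and 100% = a positive control; the first replicate is given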
PD-1 reverse act: activators reversing PD-1 mediated T-cell inhibition, primary screen, luminescence, primary human CD4 T cells, PD-L1 beads | CellTiter-Glo 96 h | activation, % (concentration not given with the values) | 29,000 tested, under 10 active;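 active = replicate mean of 50% or more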;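 note: 0% = median vehicle wells and 100% = positive control; 100 nL library stock added to about 50 µL; numbers are from one replicate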
An asterisk follows results filed as active; nt = not tested or not shown.

SMILES	Hedgehog inh	YB-1 expr inh	MITF inhib	PD-1 reverse act
C[C@H]1CN([C@@H](C)CO)C(=O)c2cc(NS(=O)(=O)c3cccs3)ccc2O[C@@H]1CN(C)Cc1ccc(-c2ccccc2)cc1	33	0.082	8	-2.5
C[C@@H]1CN([C@H](C)CO)C(=O)Cc2cc(NC(=O)Cc3ccccc3)ccc2O[C@H]1CN(C)C(=O)Nc1ccc2c(c1)OCO2	-26	-0.3	-4	-0.6
Cc1ccc(NC(=O)CSc2nnc(-c3ccncc3)n2-c2ccc(Cl)cc2)cc1F	nt	nt	4	-2.3
COCCNC(=O)c1c(NC(=O)c2ccccc2C)sc2c1CCCC2	nt	nt	-39	-0.3
Cn1c(SCC(=O)Nc2ccc(Br)c(Cl)c2)nnc1-c1ccccc1F	nt	nt	42	-3.6
C[C@@H]1CN([C@H](C)CO)C(=O)c2cccc(NC(=O)c3cnccn3)c2O[C@@H]1CN(C)C(=O)Nc1ccccc1	-10	-0.31	-5	1.4
CCS(=O)(=O)CCSc1nc(C)c(C(=O)Nc2ccccc2)c(-c2ccccc2)c1C#N	nt	nt	-7	3.2
CN1C2CCC1CC(OC(=O)c1c[nH]c3ccccc13)C2 (stereo unspecified)	19	-0.21	-3	3.7
NS(=O)(=O)c1cc2c(cc1Cl)NCNS2(=O)=O	-30	0.34	-22	nt
COc1ccc(OC)c(NC(=O)c2cnn(-c3ccccc3Cl)c2NC(=O)c2ccco2)c1	nt	nt	-2	-1.1

In the list so far, these have a halogen:
SMILES	Hedgehog inh	YB-1 expr inh	MITF inhib	PD-1 reverse act
Cc1ccc(NC(=O)CSc2nnc(-c3ccncc3)n2-c2ccc(Cl)cc2)cc1F	nt	nt	4	-2.3
Cn1c(SCC(=O)Nc2ccc(Br)c(Cl)c2)nnc1-c1ccccc1F	nt	nt	42	-3.6
NS(=O)(=O)c1cc2c(cc1Cl)NCNS2(=O)=O	-30	0.34	-22	nt
COc1ccc(OC)c(NC(=O)c2cnn(-c3ccccc3Cl)c2NC(=O)c2ccco2)c1	nt	nt	-2	-1.1

A portion of the results above, as a working copy:
SMILES	Hedgehog inh	YB-1 expr inh	MITF inhib	PD-1 reverse act
NS(=O)(=O)c1cc2c(cc1Cl)NCNS2(=O)=O	-30	0.34	-22	nt
COc1ccc(OC)c(NC(=O)c2cnn(-c3ccccc3Cl)c2NC(=O)c2ccco2)c1	nt	nt	-2	-1.1

Next section.
SMILES	Hedgehog inh	YB-1 expr inh	MITF inhib	PD-1 reverse act
C[C@H]1CN([C@@H](C)CO)C(=O)c2cc(NC(=O)Nc3ccc(C(F)(F)F)cc3)ccc2O[C@@H]1CN(C)C(=O)Nc1ccccc1	nt	-0.087	-9	-1.8
COc1c(O)cc2oc(-c3ccc(O[C@@H]4O[C@H](CO)[C@@H](O)[C@H](O)[C@H]4O)cc3)cc(=O)c2c1O	16	-0.17	54	-0.2
C/C=C/C1C2OC3=C(C(=O)OC3(C)O)C(=O)C1(C)C1CC(O)C(C)CC1C2O (stereo unspecified)	4	-0.27	7	2.9
CCOc1ccccc1NC(=O)CSc1nc2sc(C)c(C)c2c(=O)n1-c1ccccc1	nt	nt	12	-3.1
Cc1noc(C)c1NC(=O)Nc1ccc2c(c1)CC(=O)N([C@H](C)CO)C[C@@H](C)[C@@H](CN(C)Cc1ccccc1)O2	-5	-0.23	0	nt
COC(=O)c1ccccc1NC(=O)CSc1[nH]c(=O)cc(C)c1C#N	nt	nt	-4	-0.5
C[C@H](CO)N1C[C@H](C)[C@H](CN(C)S(=O)(=O)c2ccccc2)Oc2c(NS(=O)(=O)c3cccs3)cccc2C1=O	33	0.29	1	-0.3
CCOc1ccc2nc(NS(=O)(=O)c3ccc(C)c([N+](=O)[O-])c3)sc2c1	nt	nt	10	1.7
COc1ccc(S(=O)(=O)N(C)C[C@@H]2Oc3c(NC(=O)C4CC4)cccc3C(=O)N([C@@H](C)CO)C[C@@H]2C)cc1	20	-0.7	-2	1.0
Cc1noc(C)c1NC(=O)Nc1ccc2c(c1)C(=O)N([C@H](C)CO)C[C@H](C)[C@@H](CN(C)Cc1ccc(C(F)(F)F)cc1)O2	25	-0.24	10	0.5
CC(C)NC(=O)Nc1cccc2c1O[C@@H](CN(C)S(=O)(=O)c1ccc(Cl)cc1)[C@@H](C)CN([C@H](C)CO)C2=O	102*	0.75	-2	-0.3
CCc1ccc(NC(=O)CSc2nnc(C)n2-c2ccccc2)cc1	nt	nt	-29	0.7
Cc1ccc(S(=O)(=O)Nc2cccc3c2O[C@@H](CN(C)C(=O)Nc2c(C)noc2C)[C@@H](C)CN([C@@H](C)CO)C3=O)cc1	17	-0.38	-2	2.2
C[C@H]1CN([C@@H](C)CO)C(=O)Cc2cc(N(C)C)ccc2O[C@H]1CN(C)Cc1ccc(Oc2ccccc2)cc1	-11	0.42	7	-2.0
CC(C)NC(=O)Nc1ccc2c(c1)C(=O)N([C@H](C)CO)C[C@H](C)[C@H](CN(C)CC1CC1)O2	-70	0.23	-6	nt
c1ccc(-c2nn3c(C4COc5ccccc5O4)nnc3s2)cc1 (stereo unspecified)	nt	nt	-75	0.5
COc1ccc(C(=O)CSc2nnc(CC(C)O)n2C)cc1 (stereo unspecified)	nt	nt	-1	2.2
COc1ccc(NC(=O)N(C)C[C@H]2Oc3c(NS(C)(=O)=O)cccc3C(=O)N([C@@H](C)CO)C[C@H]2C)cc1	25	-0.51	12	2.0
Cc1cc(C)c(C)c(S(=O)(=O)NCC(=O)Nc2ccc3c(c2)OCCO3)c1C	nt	nt	-20	2.2
C[C@H](CO)N1C[C@H](C)[C@@H](CN(C)CC2CCCCC2)Oc2ccc(NC(=O)CCN3CCOCC3)cc2C1=O	10	0.046	-1	0.8
COc1ccc(S(=O)(=O)N(C)C[C@H]2Oc3ccc(NC(=O)CCCCCC(=O)Nc4ccccc4N)cc3C(=O)N([C@H](C)CO)C[C@@H]2C)cc1	nt	0.059	-9	1.6
C[C@H](CO)N1C[C@H](C)[C@H](CN(C)CC2CCCCC2)Oc2c(NC(=O)Nc3ccc(C(F)(F)F)cc3)cccc2C1=O	40	-0.75	-2	-4.7
Cc1nnc(SCc2ccc(C(=O)c3ccc(Cl)cc3)o2)n1-c1ccccc1	nt	nt	-20	-3.1
CNC[C@@H]1OCCCC[C@@H](C)Oc2ccc(NS(=O)(=O)c3cccs3)cc2C(=O)N([C@H](C)CO)C[C@@H]1C	nt	0.052	-16	1.2
c1ccc(Oc2nc(Oc3ccccc3)nc(Oc3ccccc3)n2)cc1	2	-0.7	1	1.3
Cc1noc(C)c1NC(=O)Nc1ccc2c(c1)CC(=O)N([C@@H](C)CO)C[C@H](C)[C@H](CN(C)CC1CC1)O2	-9	-0.16	-8	nt
COc1ccc(CN(C)C[C@H]2Oc3c(NS(C)(=O)=O)cccc3C(=O)N([C@@H](C)CO)C[C@@H]2C)cc1	-11	-0.27	-9	nt
COC(=O)c1ccccc1NC(=O)CSc1n[nH]c(-c2ccccc2Cl)n1	nt	nt	1	-0.7
C[C@H]1CN([C@@H](C)CO)C(=O)Cc2cc(NC(=O)Cc3ccccc3)ccc2O[C@H]1CN(C)C(=O)Nc1cccc2ccccc12	15	0.27	6	-0.5
Cc1noc(C)c1NC(=O)Nc1cccc2c1O[C@H](CN(C)C(=O)Nc1c(C)noc1C)[C@@H](C)CN([C@H](C)CO)C2=O	-31	0.34	-4	3.3
COc1ccc(S(=O)(=O)Nc2ccc3c(c2)C(=O)N([C@H](C)CO)C[C@H](C)[C@@H](CN(C)S(=O)(=O)c2ccc(Cl)cc2)O3)cc1	nt	-0.049	-12	0.7
CC(=O)O[C@@](C)(C(=O)/C=C/C(C)(C)O)[C@H]1[C@H](O)C[C@@]2(C)[C@@H]3CC=C4[C@@H](C=C(O[C@@H]5O[C@H](CO)[C@@H](O)[C@H](O)[C@H]5O[C@@H]5O[C@@H](C)[C@H](O)[C@@H](O)[C@H]5O)C(=O)C4(C)C)[C@]3(C)C(=O)C[C@]12C	-7	1.6	nt	nt
C[C@H]1CN([C@@H](C)CO)C(=O)c2cc(NC(=O)CCCN(C)C)ccc2O[C@@H]1CN(C)Cc1ccccc1	6	0.35	11	0.7
Cc1noc(C)c1NC(=O)N(C)C[C@@H]1Oc2c(NS(=O)(=O)c3ccccc3)cccc2C(=O)N([C@H](C)CO)C[C@@H]1C	-133	-0.61	-5	1.4
Cc1noc(C)c1NC(=O)N(C)C[C@H]1Oc2c(NC(=O)NC3CCCCC3)cccc2C(=O)N([C@@H](C)CO)C[C@@H]1C	-8	1.1	0	0.6
COc1ccc(NC(=O)N(C)C[C@@H]2Oc3ccc(NC(=O)Nc4ccccc4)cc3C(=O)N([C@H](C)CO)C[C@H]2C)cc1	-35	-0.014	5	2.1
C[C@@H]1O[C@@H](O[C@H]2[C@@H]3C=CO[C@@H](O[C@@H]4O[C@H](CO)[C@@H](O)[C@H](O)[C@H]4O)[C@@H]3[C@@]3(CO)O[C@@H]23)[C@H](OC(=O)/C=C/c2ccccc2)[C@H](O)[C@H]1O	2	0.39	0	2.6
C[C@H]1CN([C@@H](C)CO)C(=O)Cc2cc(NC(=O)Cc3ccccc3)ccc2O[C@@H]1CN(C)Cc1ccccc1	22	0.79	13	-2.4
CC(=O)OC[C@@]12C(=O)C[C@@H](C)[C@]3(C[C@@H](c4ccoc4)OC3=O)[C@H]1CC[C@H](O)[C@]21CO1	-3	0.79	-7	1.2
C[C@@H]1CN([C@@H](C)CO)C(=O)c2cccc(NS(=O)(=O)c3ccccc3)c2O[C@@H]1CN(C)S(=O)(=O)c1ccc(Cl)cc1	9	-0.51	-1	-1.4
COC(=O)CNC(=O)c1cc2nc(-c3ccc(C)c(C)c3)cc(C(F)(F)F)n2n1	nt	nt	-21	-1.3
CC(C)NC(=O)Nc1cccc2c1O[C@@H](CN(C)Cc1ccc(Oc3ccccc3)cc1)[C@@H](C)CN([C@H](C)CO)C2=O	-31	-0.14	1	-2.4
Cn1c(=O)c2c(ncn2CC(O)COc2ccccc2)n(C)c1=O (stereo unspecified)	nt	0.36	11	0.3
C[C@H]1CN([C@@H](C)CO)C(=O)c2cccc(NS(=O)(=O)c3ccc(Cl)cc3)c2O[C@@H]1CN(C)S(=O)(=O)c1cccs1	-14	0.21	-1	-0.6
COc1ccc(CCNC(=O)C2OCCc3ccccc32)cc1OC (stereo unspecified)	nt	nt	7	0.9
C[C@H]1CN([C@@H](C)CO)C(=O)Cc2cc(NC(=O)Cc3ccccc3)ccc2O[C@@H]1CN(C)S(=O)(=O)c1cccs1	0	-0.093	0	nt
C[C@@H]1CCCCO[C@@H](CN(C)S(=O)(=O)c2ccccc2)[C@@H](C)CN([C@H](C)CO)C(=O)c2cc(NC(=O)CCCCCC(=O)Nc3ccccc3N)ccc2O1	nt	0.81	-9	0.6
Cc1noc(C)c1NC(=O)Nc1cccc2c1O[C@@H](CN(C)C(=O)NC(C)C)[C@H](C)CN([C@@H](C)CO)C2=O	8	-0.67	1	1.4
COc1ccc(CN(C)C[C@@H]2Oc3ccc(NC(=O)NC(C)C)cc3CC(=O)N([C@@H](C)CO)C[C@@H]2C)cc1	-21	-0.22	-3	nt
Cc1noc(C)c1NC(=O)N(C)C[C@H]1Oc2ccc(NS(=O)(=O)c3c(C)noc3C)cc2C(=O)N([C@H](C)CO)C[C@@H]1C	21	0.4	4	-0.2
The results go on:
SMILES	Hedgehog inh	YB-1 expr inh	MITF inhib	PD-1 reverse act
Cc1noc(C)c1S(=O)(=O)N(C)C[C@H]1Oc2ccc(NS(=O)(=O)c3cccs3)cc2C(=O)N([C@@H](C)CO)C[C@H]1C	3	-0.19	0	0.1
C[C@H]1CN([C@@H](C)CO)C(=O)c2cc(NS(=O)(=O)c3ccc(Cl)cc3)ccc2O[C@H]1CN(C)S(=O)(=O)c1cn(C)cn1	-35	0.16	-3	2.3
C[C@@H]1CN([C@H](C)CO)C(=O)c2cc(NC(=O)c3ccncc3)ccc2O[C@@H]1CN(C)Cc1ccc(Cl)c(Cl)c1	22	0.032	-18	nt
N#C/C(=C(\O)c1ccc(C(=O)c2ccccc2)cc1)c1nc2ccccc2s1	96*	0.0008	31	0.3
C[C@@H]1CN([C@H](C)CO)C(=O)c2cc(NS(=O)(=O)c3ccc(Cl)cc3)ccc2O[C@H]1CN(C)CC1CC1	-8	-0.31	-4	1.5
Cn1c(SCC(=O)Nc2ccccc2C(F)(F)F)nnc1-c1ccc(NC(=O)c2ccc(F)cc2)cc1	nt	nt	22	3.2
CC(=O)Nc1ccc(NC(=O)CN(c2ccc(I)cc2)S(C)(=O)=O)cc1	nt	nt	-73	0.8
NC1(N)OC(CN2C(=O)c3ccccc3C2=O)CS1 (stereo unspecified)	6	-0.029	-4	0.1
COCCNC(=O)c1ccccc1NC(=O)c1cccc([N+](=O)[O-])c1C	nt	nt	2	1.8

Screens deposited in PubChem BioAssay by Broad Institute.

The list is partial (hit frequency here may not be typical).
